T cruzi inh = blocks replication of Trypanosoma cruzi; actives 1.4% (n = 300,000); T. cruzi beta-gal in NIH3T3, luminescence, 90 h; inhibition, % (concentration not given with the values);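 active = mean inhibition across valid replicates above about 55%, limit read from the data; inconclusive = mean below that limit but half or more replicates reach it; inactive = mean below it, under half of replicates reach it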;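 note: signal also drops with host cell toxicity which is not excluded here; 0% = plate median of DMSO wells and 100% = zero luminescence signal; higher percent means less beta-gal luminescence so fewer parasites; stock transfer was 50 nL into about 50 µL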
Calb FLC = affects C. albicans growth with fluconazole; C. albicans CaCi-2 (fluconazole-resistant clinical isolate) + fluconazole, Alamar Blue growth, 48 h; growth inhibition, % (test concentration not listed); actives 0.57% (n = 300,000); AID 1979;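 active = most replicates above 75%; inconclusive = exactly half above 75%; inactive = most below 75%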;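 note: all wells also contain fluconazole at 8 µg/ml as a sub-toxic cotreatment; 0% = median of DMSO wells and 100% = median of geldanamycin control wells; wells of about 8 µL received 7.5 nL stock; the first replicate is given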
Beta apoptosis = blocks beta cell apoptosis; actives 0.8% (n = 300,000); INS-1E cytokine-induced death, ATP luminescence, 48 h; percent of positive-control rescue, neutral wells zero; protection from apoptosis, % (no concentration beside the values);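 active = all replicates at 75% or more, or half of them and the mean; inconclusive = half reach 75% but not the mean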;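 note: 0% = cytokine-treated negative control wells and 100% = positive control rescue; higher means more ATP so stronger rescue from cytokine killing; wells of about 40 µL received 100 nL stock; the first replicate is given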
Bfl-1 A1 inh = inhibitors of the anti-apoptotic protein A1, read as caspase activation | MEF A1-2A-BIM cells, Caspase-Glo 3/7 luminescence, 3 h; percent of clofoctol response, vehicle zero | caspase activation, % (no concentration beside the values) | actives 0.066% (n = 330,000);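 active = over half of replicate activation scores above 10%, or exactly half above 10 with the replicate mean above 10; inconclusive = replicate mean below 10 yet half the replicates above 10; inactive = over half of replicates below 10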;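 note: wells of about 30 µL received 50 nL stock; many hits fall short of the cut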
LANA-H2A inh = blocks KSHV LANA binding to histone H2A/H2B; Q9QR71; cell-free LANA-H2A/H2B peptide, fluorescence polarization; inhibition, % (test concentration not listed); actives 0.6% (n = 320,000); AID 2629; in the data active = inhibition mostly above about 10%, no sharp cut-off; inactive = mostly below about 6.7%;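 note: stock transfer was 7.5 nL into about 10 µL; 0% = median of vehicle wells and 100% = median of positive control wells; one replicate is shown; the record names a cut of 25% in any replicate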
Target sequence (Q9QR71 whole entry, looked up): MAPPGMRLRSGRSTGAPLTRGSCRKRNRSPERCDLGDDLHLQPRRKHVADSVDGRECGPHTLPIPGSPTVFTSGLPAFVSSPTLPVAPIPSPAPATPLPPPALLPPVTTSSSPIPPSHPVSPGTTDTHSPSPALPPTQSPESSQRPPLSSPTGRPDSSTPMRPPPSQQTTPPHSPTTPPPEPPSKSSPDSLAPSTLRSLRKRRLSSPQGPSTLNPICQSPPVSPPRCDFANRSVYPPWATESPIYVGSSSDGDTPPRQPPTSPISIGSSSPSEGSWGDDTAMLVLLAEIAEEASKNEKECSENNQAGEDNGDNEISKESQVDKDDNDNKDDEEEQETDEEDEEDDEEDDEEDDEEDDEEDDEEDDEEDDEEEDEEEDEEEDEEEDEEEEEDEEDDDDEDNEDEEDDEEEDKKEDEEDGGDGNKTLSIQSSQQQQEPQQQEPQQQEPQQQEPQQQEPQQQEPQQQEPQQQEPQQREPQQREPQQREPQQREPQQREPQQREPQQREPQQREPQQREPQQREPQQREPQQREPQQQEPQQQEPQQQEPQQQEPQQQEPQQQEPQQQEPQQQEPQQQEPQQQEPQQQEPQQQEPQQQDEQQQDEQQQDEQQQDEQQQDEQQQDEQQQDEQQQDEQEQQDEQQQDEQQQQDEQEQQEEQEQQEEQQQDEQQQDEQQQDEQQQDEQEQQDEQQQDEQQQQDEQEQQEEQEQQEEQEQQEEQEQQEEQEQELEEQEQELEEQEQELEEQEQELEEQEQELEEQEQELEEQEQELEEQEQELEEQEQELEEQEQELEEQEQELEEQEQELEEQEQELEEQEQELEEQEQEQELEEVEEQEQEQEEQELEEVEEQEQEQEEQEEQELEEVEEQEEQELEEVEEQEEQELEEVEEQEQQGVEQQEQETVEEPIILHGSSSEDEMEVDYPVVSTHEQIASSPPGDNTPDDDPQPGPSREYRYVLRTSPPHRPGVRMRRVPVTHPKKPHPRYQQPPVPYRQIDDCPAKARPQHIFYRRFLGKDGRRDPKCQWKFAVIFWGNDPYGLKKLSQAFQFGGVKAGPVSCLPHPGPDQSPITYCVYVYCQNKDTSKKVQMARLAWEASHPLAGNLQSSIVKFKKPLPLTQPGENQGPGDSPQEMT
UCH37 DUB inh = human UCH37 deubiquitinating enzyme inhibition; inhibition, % (test concentration not listed); AID 588478; Q9Y5K5; purified proteasome/UCH37, Ub-AMC cleavage fluorescence; actives 0.33% (n = 330,000);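 active = mean of two replicates above 20%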;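 note: 0% = compound-free wells with enzyme and 100% = wells lacking proteasome; stock transfer was 100 nL into about 20 µL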
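Material: human UCH37 enzyme supplied as purified proteasome complex. Measure: % inhibition of Ub-AMC cleavage fluorescence. Medium: pH 7.4 Tris-HCl (50 mM) with ovalbumin, ATP-MgCl2, DTT. Times: 30 min preincubation with enzyme, 25 min cleavage at room temperature. Detection: AMC fluorescence intensity at 355/460 nm.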
Beta2AR agonist = agonists of human beta-2 adrenergic receptor inducing internalization. Am2.2-beta2AR cells, FAP receptor internalization, flow cytometry; reference of the scale not given here. response, % (no concentration beside the values). actives 0.43% (n = 340,000). AID 504454;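 active = response above a set limit, near 3 SD of response in nonfluorescent compounds, cut at about 42% in these data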;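 note: stock transfer was 100 nL into about 11 µL; a reference agonist was the positive control; negative values mostly stem from fluorescent compounds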
RanGTP-Imp inh = disruptors of Ran-importin-beta complex formation – biochemical, FRET, CFP-Ran, YFP-importin-beta, homogeneous, primary screen. AID 2216. inhibition, % (test concentration not listed). cell-free CFP-Ran/YFP-importin-beta FRET ratio. actives 1.1% (n = 300,000);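 active = most replicates above 15%; inconclusive = exactly half above 15%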;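 note: 0% = DMSO wells and 100% = Ran loaded with GDP instead of GTP; wells of about 40 µL received 100 nL stock; the first replicate is given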
Starred values were filed as active, the others as inactive; u = inconclusive; x = not tested or not shown. Hits appear at their usual frequency. About 4.3% of those tested had a hit in this group.

nr	SMILES	T cruzi inh	Calb FLC	Beta apoptosis	Bfl-1 A1 inh	LANA-H2A inh	UCH37 DUB inh	Beta2AR agonist	RanGTP-Imp inh
1	Cc1ccc(S(=O)(=O)N2CCCCC2)cc1NC(=O)Cn1c(=O)cnc2ccccc21	13	7	6	0.2	3.7	-16	0	-2.8
2	Cc1ccccc1NC(=O)CSc1nnc(Cc2ccccc2)c(=O)n1N	-2	-9	-1	-1.3	-3.0	3.4	1	2.4
3	c1cnc(N2CCN(c3cnccn3)CC2)nc1	-13	-3	0	0.9	-0.9	0.7	-1	4.5
4	COc1cccc(C(=O)Nc2ccccc2-c2ccccc2)c1	x	x	1	0.0	x	0.7	3	x
5	COC(=O)CC1C(=O)NCCN1C(=O)c1ccc(Cl)cc1 (stereo not given)	-19	24	0	-0.8	-1.1	1.5	3	2.0
6	COc1ccccc1OCC(=O)NCC1CCCN(C(=O)c2ccccc2SC)C1 (stereo not given)	5	-2	3	0.1	-0.1	4.7	-1	-0.8
7	Fc1ccc2nc(N3CCOCC3)sc2c1	-15	-2	2	-5.4	1.2	2.3	0	7.4
8	CC(C)(C)C(=O)Nc1cccc(-c2cc(-c3c(Cl)cccc3Cl)no2)c1	52	-13	11	-0.8	4.5	6.6	8	7.0
9	COc1ccc2[nH]c3c(=O)n(CCc4ccccc4)cnc3c2c1	-2	22	-4	-1.6	1.2	-24	-2	5.1
10	O=C(CN1CCCC1)Nc1ccc(NC(=O)Nc2ccccc2Cl)cc1	-1	-8	-6	-0.5	-0.3	-6.4	3	-0.8
11	COc1ccc(C(=O)N/N=C(/C)c2ccc(N3CCCCC3)cc2)cc1	-18	3	5	0.8	-4.3	x	-2	-2.2
12	COc1cc(OC)c(CN2CCCN(C)CC2)cc1Br	44	8	-4	-0.4	-2.3	3.4	5	5.0
13	CC(=O)c1ccc(N2CCN(c3ccc(S(=O)(=O)N4CCN(C)CC4)cn3)CC2)cc1	47	0	8	0.3	-0.6	4.1	2	-8.4
14	O=C1CNC(=S)N1Cc1ccc(F)cc1	-5	-2	-9	-1.0	0.6	1.0	3	3.5
15	O=C(CSc1cc(Cl)ccc1Cl)NCC1CCCO1 (stereo not given)	0	-16	-10	0.2	-1.1	6.1	-7	-0.8
16	O=C(COC(=O)c1ccccc1)NCC1CCCO1 (stereo not given)	9	1	-9	0.4	-2.5	-3.6	-4	-1.5
17	COc1ccc(S(=O)(=O)CC(=O)c2cc3cccc(C)c3oc2=O)cc1	0	4	-3	-1.2	6.3	1.8	10	1.2
18	Cc1cc(NC(=S)N(CCCN2CCN(C)CC2)Cc2ccco2)ccc1Cl	-24	3	-14	0.1	2.6	3.9	5	5.3
19	Cc1nn(C)c(Cl)c1CN1CCC(CO)(CC2CCCCO2)CC1 (stereo not given)	10	-10	2	0.7	-0.4	1.7	6	-1.1
20	COC(=O)C1=C(COc2ccc(F)cc2)NC(=O)NC1c1ccc(C)cc1C (stereo not given)	-14	-7	x	-0.2	-1.1	4.1	-4	0.2
21	COc1ccc(OC)c(-n2c(C)cc(/C=C3\C(=N)N4N=C(CC(=O)N5CCOCC5)SC4=NC3=O)c2C)c1	-10	-4	0	0.5	-0.5	-37	1	3.2
22	CC(OC(=O)c1nsc(Cl)c1Cl)C(=O)NCc1cccs1 (stereo not given)	2	22	-9	0.5	-2.9	5.0	-1	2.9
23	CCOc1ccc(C(=O)Nc2ncccc2Cl)cc1	-11	-8	0	-0.5	-0.7	1.5	-2	-0.3
24	CCOC(=O)C1(Cc2ccccc2)CCN(Cc2ccc(COC)o2)CC1	16	-29	-5	-1.5	2.6	1.6	2	-2.1
25	CCOc1ccc(Cl)cc1S(=O)(=O)N1CCC(C(=O)NCc2ccccn2)CC1	4	-1	-1	1.4	0.1	5.7	-5	5.3

New compounds follow.
nr	SMILES	T cruzi inh	Calb FLC	Beta apoptosis	Bfl-1 A1 inh	LANA-H2A inh	UCH37 DUB inh	Beta2AR agonist	RanGTP-Imp inh
26	NS(=O)(=O)OCCCc1ccccc1	4	7	-2	1.0	9.4	0.6	-2	-1.0
27	O=Cc1c(NCCc2cccc(F)c2)c2ccccc2[nH]c1=O	-9	4	0	0.2	1.5	-0.9	-1	5.4
28	Cc1cc(NC(=O)CSc2nnc(COc3ccccc3)n2Cc2ccco2)no1	-12	2	0	0.0	-0.5	3.6	0	5.4
29	Cn1ncc([N+](=O)[O-])c1C(=O)NC1CCCCCC1	1	-15	x	x	x	0.2	2	-3.2
30	Cc1nc(N2CCNCC2)c2c3c(sc2n1)CCCC3	1	-4	-2	-0.1	0.5	4.6	18	3.4
31	O=C(Nc1ccccc1-c1ccccc1)NC1CC2CCCC(C1)N2CCc1ccccc1 (stereo not given)	16	-2	17	1.2	-4.4	1.9	0	x
32	N#CC(Cc1ccccc1)(Cc1ccccc1)C(=O)NN	3	-11	-1	-0.2	0.3	2.0	1	-4.9
33	COc1ccc(OC)c(CNc2c(C=O)c(=O)[nH]c3ccccc23)c1	-18	10	-6	0.2	0.3	2.9	10	3.2
34	O=C(C1CCCN(Cc2cccc(Cl)c2)C1)N1CCCCC1 (stereo not given)	66*	-8	-2	0.9	3.7	7.1	-12	4.5
35	Cc1ccc(-c2csc(CC(N)=O)n2)cc1	-22	u	-8	-1.0	4.7	-0.7	-1	0.2
36	CCOC(=O)Nc1ccc2c(c1)N(C(=O)CN1CCN(CCO)CC1)c1ccccc1CC2	-6	-3	x	0.4	-1.9	2.3	3	-5.9
37	Cc1[nH][nH]c(=O)c1C=NCc1ccc(Cl)cc1	-9	12	-2	0.7	-1.8	7.3	-3	-1.8
38	Nc1nc(NC(=O)c2ccccc2Cl)nn1-c1ccccc1	-10	-7	2	0.0	1.2	5.9	-2	1.1
39	O=S(=O)(c1ccccc1)c1ccc(N2CCCCCC2)cc1	24	-9	2	-0.6	1.4	-41	0	2.0
40	O=C(CN(Cc1ccccc1)S(=O)(=O)c1ccc2c(c1)OCCO2)N/N=C/c1ccc(F)cc1	22	-29	-5	0.2	1.5	x	-12	-2.7
41	O=C(CC(NS(=O)(=O)c1ccc(Cl)cc1)c1ccco1)NCc1cccnc1 (stereo not given)	31	-2	0	0.1	-2.8	0.1	-1	-0.1
42	CN(C)S(=O)(=O)c1ccc(C(=O)N2CCN=C2SCc2cccnc2)cc1	-8	-5	-8	0.4	-3.9	2.2	-9	-3.3
43	COc1ccc(Cl)cc1NC(=O)CN(C)C(=O)/C=C/c1ccco1	x	x	5	0.0	-5.0	-0.2	-9	x
44	CC1=NN(c2nc(-c3ccc(C)cc3)cs2)C(=O)C1N=Nc1ccccc1O (stereo not given)	55*	3	29	-0.4	-2.3	6.6	26	-6.4
45	COc1ccccc1C(CNC(=O)c1cc(C)nc2ccccc12)N(C)C (stereo not given)	18	-12	-6	-0.1	-3.0	0.0	-16	5.4
46	COc1cc(C=O)c(Br)cc1OCC(=O)NCCc1ccccc1	0	15	3	-0.4	-5.5	-1.3	-2	-2.1
47	Cn1c(=O)cc(OCC(=O)N2CCCc3ccccc32)c2ccccc21	-6	-13	-6	1.1	3.8	6.0	-1	-1.7
48	COc1ccc(-n2c(SCC(=O)NCC3CCCO3)nc3ccccc32)cc1 (stereo not given)	13	2	-9	0.3	8.9	6.3	-17	-0.4
49	O=C(Nc1ccc(C#Cc2ccccc2)cc1)C1CC1	16	-32	7	-3.2	-0.9	-0.6	-8	-1.2
50	O=C(Nc1ccc(OC(F)(F)F)cc1)Nc1cccnc1	1	-4	4	-4.4	-4.0	1.4	6	-4.7

Additional structures.
nr	SMILES	T cruzi inh	Calb FLC	Beta apoptosis	Bfl-1 A1 inh	LANA-H2A inh	UCH37 DUB inh	Beta2AR agonist	RanGTP-Imp inh
51	CC1(C)CC(=O)c2cc(OCC(=O)NCCN3CCOCC3)ccc2O1	-14	-4	-1	0.0	6.1	-379	-9	5.5
52	COc1cccc(/C=C2/SC(=O)N(C)C2=O)c1OCc1ccc(C(=O)O)cc1	10	-15	-2	-0.8	-0.1	5.7	3	4.0
53	COc1ccc(OCC(=O)Nc2ccccc2C(=O)NC2CC2)cc1	x	x	-3	0.0	-1.8	0.7	-6	x
54	CCOC(=O)C1CCN(C(=O)COC(=O)c2ccc3[nH]c4c(c3c2)CCCC4)CC1	2	-17	-8	-1.2	-2.4	-0.1	-5	19*
55	CCC(C(=O)O)n1nnc(-c2ccc(OCc3ccccc3)c(OC)c2)n1 (stereo not given)	3	-2	-6	0.5	0.3	x	x	1.7
56	CCOC(=O)c1oc2ccccc2c1CSc1nnc(-c2ccco2)o1	8	34	-1	0.6	3.1	-2.1	8	2.0
57	O=C(NC1CCCC1)c1cccnc1N1CCCCCC1	-2	5	0	0.6	2.4	3.5	1	-1.1
58	COc1ccc(C)cc1NC(=O)Nc1cnccn1	-20	20	-6	-0.9	0.3	1.5	-6	-0.1
59	CCOC(=O)C1CCN(C(=O)Cn2cccc2C(=O)c2ccccc2)CC1	-7	2	-6	1.7	0.2	1.7	0	1.9
60	CCN(CC(=O)Nc1c(F)cccc1F)C(=O)CCc1ccc(OC)cc1	-6	-1	3	2.9	0.6	2.8	1	1.5
61	CCOc1ccc(C(=O)/C=C/c2ccccc2C(F)(F)F)cc1	-23	-2	1	-0.1	-0.5	-0.7	-8	0.2
62	N#CC1=C(N)OC2=C(C(=O)CCC2)C1c1ccsc1 (stereo not given)	-13	-1	1	0.5	3.0	-0.4	3	-4.9
63	O=C(COc1ccc(Cl)cc1Cl)NNC(=S)NCc1ccco1	-8	25	1	-0.4	-1.8	-0.3	-2	1.1
64	c1coc(-c2ncc[nH]2)c1	-7	-2	-5	-0.9	4.0	-0.3	-3	4.7
65	CC1CCN(CCCOc2ccc(Cl)cc2Br)CC1	16	-17	2	-0.4	2.8	0.8	-4	-3.0
66	CCN=C1S/C(=C\c2ccc(Sc3ccc(Cl)cc3)o2)C(=O)N1CC	17	1	-13	0.0	-2.8	-1.7	-1	2.3
67	O=S1(=O)N=C(N=Nc2c(O)[nH]c3ccccc23)c2ccccc21	-4	0	-3	-1.0	-2.3	14	1	-2.3
68	CCOC(=O)Cc1csc(NC(=O)CSc2nnc(C)n2C)n1	-12	6	-2	-0.5	3.4	2.3	-5	1.0
69	CCCCNCc1nc2ccccc2c(=O)[nH]1	-22	0	0	-0.6	-2.3	-3.5	1	1.2
70	COC(=O)c1ccccc1NC(=O)Oc1ccc(F)cc1	-5	19	-1	0.3	-1.7	-15	5	-1.8
71	CCOC(=O)c1c(NC(=O)CN2CCOCC2)sc2c1CCCC2=O	20	5	3	0.2	-1.5	5.2	-10	u
72	Cc1c(NC(=O)NC(=O)c2ccc(F)cc2)c(=O)n(-c2ccccc2)n1C	-3	-1	4	0.4	0.4	2.8	1	0.4
73	O=C1C(Cc2ccccc2)Nc2ncnc(N3CCN(c4ccccc4)CC3)c2N1Cc1ccc(Cl)cc1 (stereo not given)	35	2	-5	-0.3	-2.5	0.9	1	1.6
74	CC(C)NS(=O)(=O)c1ccc(CCC(=O)Nc2ccc3c(c2)OCCO3)cc1	-10	49	-5	-1.1	0.7	0.8	-1	0.8

Screens: PubChem, several laboratories
